Bioassay records deposited in PubChem BioAssay by ICCB-Longwood Screening Facility, Harvard Medical School.
Sa growth inh = S. aureus growth inhibition at 42 and 30 °C, primary screen, LtaS inhibitor project, RN4220, two temperatures; OD600, 20 h, 42 °C; hits give low values; relative growth, % (concentration not given with the values); actives 0.53% (n = 170,000);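 active = growth at 42 °C up to 50% and 20 or more points under that at 30 °C, or under 10% at both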;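 note: 300 nL library stock went into each well; scaled to the means of positive and negative controls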
HCMV NEC inh = inhibitors of HCMV UL50-UL53 interaction, biochemical, HTRF | HCMV UL50-UL53 nuclear egress complex (human cytomegalovirus) | normalized percent inhibition | inhibition, % (test concentration not listed) | actives 0.15% (n = 190,000);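 active = both replicates at 50% or more, plus weaker picks with an unusually low signal ratio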;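 note: stock transfer was 100 nL into about 20 µL; 0% = negative control wells and 100% = wells with untagged competitor protein; inactives centre near -12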
GIV Gai3 FP = inhibitors of GIV peptide binding to Galpha-i3, primary screen, biochemical, fluorescence polarization, FITC-GIV GBA peptide, rat Galphai3; percent of control (FP), % (test concentration not listed); 90 min; hits give low values; scaled: aluminum fluoride 0%, vehicle 100%; Guanine nucleotide-binding protein G(i) subunit alpha-3 (Rattus norvegicus), P08753; AID 1224905, 2016; actives 0.42% (n = 210,000);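 active = replicate mean at 85% of control or lower, very high polarization wells dropped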;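 note: wells of about 15 µL received 100 nL stock; the first replicate is given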
Target sequence (P08753 whole entry, looked up): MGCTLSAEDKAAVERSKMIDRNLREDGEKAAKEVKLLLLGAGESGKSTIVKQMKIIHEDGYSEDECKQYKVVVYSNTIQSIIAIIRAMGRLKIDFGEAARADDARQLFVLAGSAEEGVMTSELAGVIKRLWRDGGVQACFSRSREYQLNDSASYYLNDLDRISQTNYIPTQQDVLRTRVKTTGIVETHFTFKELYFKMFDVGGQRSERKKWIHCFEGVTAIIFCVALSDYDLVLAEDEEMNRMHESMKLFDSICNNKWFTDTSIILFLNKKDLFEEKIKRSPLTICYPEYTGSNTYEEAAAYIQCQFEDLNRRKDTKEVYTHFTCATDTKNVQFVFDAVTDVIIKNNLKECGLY
Sa growth inh second temp = also measured in Sa growth inh; calls as there; relative growth, %; measured here: growth at 30 °C;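 optical density after 20 h as mean of two plates; 100% = untreated growth and lower means inhibition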
Active calls of the source: *; · = no result given.

SMILES	Sa growth inh	Sa growth inh second temp	HCMV NEC inh	GIV Gai3 FP
COc1ccccc1NC(=O)CSc1nncn2c1cc1oc(C)cc12	106	90	·	104
CCOC(=O)c1sc2nc(SCC(=O)c3ccc(Br)cc3)n(N)c(=O)c2c1C	106	87	·	105
CC(C)N(Cc1ccccc1)S(=O)(=O)c1ccc(N2CCCCS2(=O)=O)cc1	108	88	·	99
COC(=O)C1=C(c2ccccc2)c2ccccc2S(=O)(=O)N1CC(=O)Nc1ccc(C)cc1C	·	·	-36	102
Cc1cccc(C)c1NC(=O)Cn1c(=O)n(Cc2ccccc2Cl)c(=O)c2cccnc21	108	88	-34	102
CC1CCN(C(=O)C2CCN(Cc3cccc(O)c3)CC2)CC1	104	83	15	94
O=C(Cn1ccn(-c2ccc(F)c(F)c2)c(=O)c1=O)NCc1ccccc1	107	99	-11	98
CCC(C(=O)Nc1cc(F)ccc1F)S(=O)(=O)c1ccc2c(c1)S(=O)(=O)N=CN2 (stereo not drawn)	·	·	-35	100
COc1ccc(-c2cc(C(F)(F)F)n3nc(C(=O)Nc4cccc(O)c4)cc3n2)cc1	·	·	-30	104
Cc1ccc(C)c(N2CCN(C(=O)Cn3c(-c4cccs4)cc4ccccc43)CC2)c1	107	102	·	101
Cc1c(C(=O)CN2CCN(C(=O)Nc3ccccc3Br)CC2)c2ccccc2n1C	·	·	-12	99
CCc1ccc(NC(=O)Nc2ccccc2OCc2cc(=O)n3c(ncn3C(C)C)n2)cc1	·	·	-1	98
NC(=O)NN=C1CCN(Cc2ccccc2)CC1	95	89	-7	113
COc1ccc(-c2nc3scc(CCNS(=O)(=O)c4c(C)cc(C)cc4C)n3n2)cc1OC	112	92	·	104
N#Cc1cccc(CSc2nnc(-c3ccccc3O)n2Cc2ccccc2)c1	90	89	-14	105
C[N+](C)(Cc1ccc(Cl)cc1)NCc1ccc(Cl)cc1	76	82	-4	·
CCN(CC)CCOC(=O)c1ccc(NC(=O)CN2C(=O)S/C(=C\c3ccccc3)C2=O)cc1	·	·	-29	109
Cc1cc(C(=O)COC(=O)c2cccs2)c(C)n1Cc1cccs1	104	90	-16	·
Cc1ccc(Cl)cc1NC(=O)C(NS(=O)(=O)c1ccc2c(c1)CCC(=O)N2)c1ccccc1 (stereo not drawn)	117	79	-42	96
CC(C#N)(Nc1ccccc1)c1cccnc1 (stereo not drawn)	104	79	6	112
CC1CCN(C(=O)C2CC(c3ccc(F)cc3)=NO2)CC1 (stereo not drawn)	·	·	2	95
C=CCn1c(=O)c2ccc(C(=O)NCc3ccc4c(c3)OCO4)cc2n(CC(=O)NCc2ccco2)c1=O	134	98	-7	99
COc1ccc(-c2c(C)oc3c(CN4CCN(C)CC4)c(O)ccc3c2=O)cc1	103	88	·	103
COc1cc(CN(CC2CCCO2)C(=O)c2ccc(F)cc2)cc(OC)c1OC (stereo not drawn)	97	81	-22	103
Cc1ccc(-n2c(=O)c3c(C)c(C)sc3n(CC(=O)c3ccc(Cl)cc3)c2=O)cc1C	97	94	-5	102
Cc1ccc(Oc2ccc3c(c2)C(=O)N(CC(=O)O)C3=O)cc1C	89	105	-43	·
COc1ccc(CC(=O)Nc2ncn[nH]2)cc1OC	91	88	-18	101
COC(=O)CCC/C=C1/SCC(NC(=O)c2ccccc2)/C1=N/O (stereo not drawn)	90	84	-6	104
CC12CN3CC(c4ccccc4)(CN(C1)C3c1ccc(O)cc1)C2=O (stereo not drawn)	99	91	-15	108
CC(C)Cc1ccc(S(=O)(=O)N2CCN(Cc3noc(CCC(=O)N4CCCCC4)n3)CC2)cc1	105	95	·	106
O=C(Nc1ccc(Nc2nc3c(S(=O)(=O)c4ccc(Br)cc4)nnn3c3ccccc23)cc1)c1ccco1	93	77	-1	99
Cn1c(CSc2nc3ccccc3s2)n[nH]c1=S	89	79	-22	·
CCOC(=O)c1sc(N2C(=O)c3oc4ccccc4c(=O)c3C2c2ccc(O)c(OCC)c2)nc1C (stereo not drawn)	92	90	-12	104
COc1ccc(CNC(=O)c2ccc(Cn3cc(Br)cn3)o2)cc1	87	82	-33	102
CC1CCN(c2oc(-c3cccs3)nc2S(=O)(=O)c2ccc(Cl)cc2)CC1	100	95	-19	102
CC(C(=O)OCC(=O)Nc1ccccc1)N1C(=O)c2ccccc2C1=O (stereo not drawn)	86	90	-27	·
Cc1nn2c(-c3ccco3)nnc2c2ccccc12	80	81	-13	105
Cc1oc(-c2ccc(Cl)cc2)nc1CSc1nc2ncccc2[nH]1	90	86	·	100
CC(=O)Nc1ccc(S(=O)(=O)Nc2ccc3c(c2)n(C)c(=O)n3C)c(C)c1	114	86	-14	105
O=C(Cn1cnc2ccccc2c1=O)N1CCSC1c1ccccc1F (stereo not drawn)	97	96	-8	·
CCCCNC(=O)Cn1nc(N2CCN(c3ccccc3OC)CC2)ccc1=O	89	93	·	100
Cc1cc(C(=O)OCc2nnc(-c3ccccc3)o2)c(C)n1-c1ccccc1	120	92	-8	·
CCn1cc(C(=O)O)c(=O)c2cc(F)c(N3CCN(C(=O)c4ccccc4F)CC3)cc21	51	1	-13	105
Cc1ccc(-c2nn(C)c(=O)c3ccccc23)cc1S(N)(=O)=O	98	98	6	103
O=C(Cn1ncc(-c2ccccc2)nc1=O)Nc1c(F)cccc1F	·	·	-79	104
O=C(O)c1ccc(Cl)c(NC(=O)c2ccco2)c1	102	98	12	·
COc1cc2ccccc2cc1C(=O)OCC#N	103	94	-64	·
Cc1cc(C)c(/C=C/c2onc(C)c2S(=O)(=O)N2CCC(C(=O)Nc3ccc(Cl)cc3C)CC2)c(C)c1	92	90	·	102
CCCN(CC1CC1)C(=O)c1cc(S(=O)(=O)N(CC)CC)ccc1Cl	103	76	-23	·
COc1ccccc1S(=O)(=O)Nc1ccc2nc(C)sc2c1	66	93	-17	·
O=S(=O)(Cc1ccccc1)NCc1cccn1Cc1ccccc1F	·	·	-34	107
O=C(Nc1ccccc1C(F)(F)F)N1CCC2(CC1)Oc1ccccc1C(=O)N2Cc1ccccc1F	105	96	-9	104
N#Cc1ccc(C(=O)Oc2ccc3ccccc3c2)cc1	99	85	-17	·
O=C(c1ccccc1)N1CCC(c2nc3ccccc3[nH]2)CC1	103	68	-6	103
CCOC(=O)c1ccc(NC(=O)CN2C(=O)C(C)(C)c3ccccc32)cc1	107	101	·	111
CC(NCC(F)(F)F)C1CC1 (stereo not drawn)	88	89	-8	·
CC(=O)Nc1ccc(N2C(=O)c3ccc4c5c(ccc(c35)C2=O)C(=O)N(c2ccc(NC(C)=O)cc2)C4=O)cc1	·	·	-46	108
CC(=O)Nc1ccccc1-c1nnc(-c2ccc(C(C)(C)C)cc2)o1	100	98	-10	103
Cc1ccc(-c2cn3c(n2)sc2cc(C(=O)NCCN4CCCC4)ccc23)cc1	81	0	-13	101
CCn1cc(C(=O)NCCCOC(C)C)c(=O)c2cc(S(=O)(=O)N(C)C3CCCCC3)ccc21	92	92	7	105
(continued)
SMILES	Sa growth inh	Sa growth inh second temp	HCMV NEC inh	GIV Gai3 FP
COC(=O)CC1=C(C(=O)OC)C(c2ccc(C(=O)OC)cc2)C(C#N)=C(N)O1 (stereo not drawn)	97	79	-16	104
O=C(Nc1nc2ccc(F)cc2s1)c1nc(SCc2ccccc2F)ncc1Cl	99	82	-33	101
CCOC(=O)c1c(C)n(C)c2ccc(OCC(O)CNCc3ccccc3)cc12 (stereo not drawn)	107	78	0	105
COc1ccccc1NC(=O)c1sc2nc(-c3cc4cccc(OC)c4oc3=O)[nH]c(=O)c2c1C	100	87	·	100
COc1cc(CNCC(C)C)ccc1OCc1ccc2c(c1)n(C)c(=O)n2C	·	·	-12	101
O=C(O)c1ccc2c(c1)sc1[n+]2CCS(=O)(=O)N1	82	97	-6	·
O=C(Cc1ccc(Cl)c(Cl)c1)Nc1ccc2nc3n(c(=O)c2c1)CCCC3	102	75	8	105
CCCC(=O)Nc1ccc(-c2nc3ccccc3s2)cc1	90	84	-11	·
COc1ccc(NC(=O)Cn2nc(SC)c(S(=O)(=O)c3ccc(C)cc3)c2N)cc1OC	63	88	·	101
O=c1c2c(-c3ccccc3)csc2ncn1C1CCCCC1	·	·	-26	101
Clc1ccc(Cl)c(-c2ccc(CNCc3cccnc3)o2)c1	·	·	10	110
CCN1C(=O)c2ccccc2S(=O)c2ccc(C(=O)N3CCN(c4ccccc4OC)CC3)cc21 (stereo not drawn)	110	84	-26	99

Part of the list above, reduced to HCMV NEC inh and Sa growth inh:
molecule	HCMV NEC inh	Sa growth inh
CC(C#N)(Nc1ccccc1)c1cccnc1 (stereo not drawn)	6	104
Cc1ccc(Cl)cc1NC(=O)C(NS(=O)(=O)c1ccc2c(c1)CCC(=O)N2)c1ccccc1 (stereo not drawn)	-42	117
CC12CN3CC(c4ccccc4)(CN(C1)C3c1ccc(O)cc1)C2=O (stereo not drawn)	-15	99

The results go on.
SMILES	Sa growth inh	Sa growth inh second temp	HCMV NEC inh	GIV Gai3 FP
CCOC(=O)C1=C(CN2CCN(c3ccc(Cl)cc3)CC2)NC(=O)NC1c1ccc(F)cc1 (stereo not drawn)	113	100	·	102
FC(F)(F)c1cc(-c2ccccc2)nc(NCc2cccnc2)n1	80	84	·	107
O=C(NCCCn1ccnc1)Nc1cccc2ccccc12	83	86	-50	·
COC(=O)c1ccccc1NC(=O)c1c(NC(=O)c2ccco2)sc2c1CCC(C(C)(C)C)C2 (stereo not drawn)	99	101	-5	101
CC(OC(=O)c1ccc(O)cc1)C(=O)Nc1cc(Cl)cc(Cl)c1 (stereo not drawn)	97	78	-18	·
O=C(COC(=O)c1cccnc1Cl)c1cccc(Cl)c1	109	94	-9	·
NC(=O)c1cc2ccccc2nc1C(N)=O	103	89	-27	·
CCCCn1c(CN2CCCC2)nc2cc(NC(C)=O)ccc21	·	·	-9	95
O=C(Nc1ccc(-c2nc3ccccc3s2)c(Cl)c1)c1ccc2c(c1)OCCO2	·	·	-14	103
COc1ccc(Nc2nc(-c3ccc(OC)cc3)no2)cc1	92	89	·	105
CC(C)(C)c1ccc(-c2nnc(-c3ccccc3NC(=O)c3cccc(C(F)(F)F)c3)o2)cc1	94	90	-20	103
CCn1c(-c2c(Cl)c(C)nn2C)n[nH]c1=S	89	78	-19	103
Cc1cccc(NC(=O)Cn2c(=O)n(-c3ccc(F)cc3)c(=O)c3sccc32)c1	103	99	·	95
COc1ccc(NC(=O)c2cnc(N(C)C)nc2C)cc1OC	·	·	3	106
O=C(OCC1CCCN2CCCCC12)c1cc2nc(-c3ccco3)cc(C(F)(F)F)n2n1 (stereo not drawn)	99	85	-34	·
Cc1ccc(C)c(NC(=O)CCCn2c(C)c3cnn(-c4ccccc4)c(=O)c3c2C)c1	100	90	8	104
COc1ccc(CNc2ccc(C)c(C)c2)c(OC)c1OC	93	114	-6	115
Cc1ccccc1Cn1c(=O)n(CCCCCC(=O)NCc2ccc3c(c2)OCO3)c(=O)c2sccc21	114	90	-15	103
O=C(Nc1ccccc1Cl)N1CCSc2ccccc21	98	104	·	104
Cc1ccc(C(=O)OC(C)C(=O)Nc2ccc(S(N)(=O)=O)cc2)s1 (stereo not drawn)	84	93	-16	·
O=C(CN1C(=O)CC(c2ccco2)Sc2ccccc21)Nc1ccc(OC(F)(F)F)cc1 (stereo not drawn)	114	85	-27	103
O=C(Cc1n[nH]c(=O)c2ccccc12)OCc1cc(=O)n2ccsc2n1	84	86	-32	·
Cc1ccc(S(=O)(=O)NC(=O)Nc2cccc(C(F)(F)F)c2)cc1	82	79	-15	·
O=C1CCCC2=C1C(c1ccc(Br)cc1)n1nc(-c3ccco3)nc1N2 (stereo not drawn)	130	81	·	93
CCOC(=O)Cn1cnc2nn(-c3ccccc3)cc2c1=O	·	·	-34	109
CCOCCCn1c(Sc2ncnc3c2oc2ccccc23)nc2ccccc2c1=O	102	77	-19	·
COC(=O)N/N=C(\C)c1ccc(C)c(C)c1	97	90	-10	·
NC(=O)N1CCc2ccccc21	89	88	·	102
CCc1ccc2c(c1)c1nnc(SCC(=O)NC3CCCCC3C)nc1n2C (stereo not drawn)	81	89	-22	102
CCCn1c(SCC(=O)c2ccccc2)nc2ccccc21	86	78	-17	·
CCOC(=O)c1ccccc1NC(=O)c1ccccc1N(C)S(C)(=O)=O	105	95	-3	106
COC(=O)CN(c1nc(C)c(Cl)c(OC)n1)S(=O)(=O)c1ccc(C)cc1	·	·	-6	106

Reprinted at random: 6 records from the list.
SMILES	Sa growth inh	Sa growth inh second temp	HCMV NEC inh	GIV Gai3 FP
COC(=O)CN(c1nc(C)c(Cl)c(OC)n1)S(=O)(=O)c1ccc(C)cc1	·	·	-6	106
COC(=O)N/N=C(\C)c1ccc(C)c(C)c1	97	90	-10	·
NC(=O)N1CCc2ccccc21	89	88	·	102
CCc1ccc2c(c1)c1nnc(SCC(=O)NC3CCCCC3C)nc1n2C (stereo not drawn)	81	89	-22	102
CCCn1c(SCC(=O)c2ccccc2)nc2ccccc21	86	78	-17	·
CCOCCCn1c(Sc2ncnc3c2oc2ccccc23)nc2ccccc2c1=O	102	77	-19	·
